Bioassay records deposited in PubChem BioAssay by Broad Institute.
Vaccinia stage: Vaccinia orthopox stage-specific inhibition. 0.01% of 89,000 active. activity change (mCherry), % (concentration not given with the values). Vaccinia-infected cells, mCherry/Venus stage reporter fluorescence; active compounds read low; some inactives read as strong as hits;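 active means mCherry past -33% and 40 or more points under the early reporter, replicates agreeing; inconclusive means past -33% without that gap or agreement; tested in A549 cells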;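 further: scaled between vehicle wells and reference inhibitor wells; 23 nL library stock went into each well; one replicate is shown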
Vaccinia stage Venus: recorded beside Vaccinia stage, whose call it bears; activity change (Venus), %; measured here: Venus reporter, other viral stage;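 negative = less Venus signal; first of two replicates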
* hit, by the source's call; ? = inconclusive; nt = not tested or not shown. Not all compounds are listed (hit frequency here may not be typical).

SMILES	Vaccinia stage	Vaccinia stage Venus
C[C@H]1CCCCO[C@H](CN(C)Cc2ccc3c(c2)OCO3)[C@@H](C)CN([C@@H](C)CO)C(=O)c2cc(NS(=O)(=O)c3ccc(Cl)cc3)ccc2O1	?	nt
O=C(C[C@@H]1C=C[C@@H](NC(=O)c2ccncc2)[C@@H](CO)O1)NCc1ccncn1	15	15
COc1ccc(S(=O)(=O)Nc2ccc3c(c2)C(=O)N([C@@H](C)CO)C[C@H](C)[C@@H](CN(C)C)OCCCC[C@H](C)O3)cc1	24	6
COCCCNC(=O)[C@@]1(Cc2ccccc2N=[N+]=[N-])N=C(c2ccc(OCCCO)cc2)O[C@H]1c1ccccc1N=[N+]=[N-]	8	0
C[C@H](CO)N1C[C@H](C)[C@@H](CN(C)Cc2ccncc2)Oc2ccc(NS(=O)(=O)c3ccccc3)cc2CC1=O	4	4
C[C@@H]1CN([C@@H](C)CO)C(=O)Cc2cc(NC(=O)Cn3cnnn3)ccc2O[C@H]1CN(C)Cc1ccccc1	-3	1
C[C@H]1CN([C@@H](C)CO)C(=O)Cc2cc(NS(=O)(=O)c3cccs3)ccc2O[C@@H]1CN(C)C(=O)Nc1ccccc1	15	21
CC(=O)N(C)C[C@@H]1Oc2ncc(C#Cc3ccccc3F)cc2C(=O)N([C@H](C)CO)C[C@H]1C	-3	-3
Cc1noc(C)c1S(=O)(=O)N(C)C[C@@H]1Oc2ccc(NS(C)(=O)=O)cc2CC(=O)N([C@H](C)CO)C[C@H]1C	10	19
CCc1nc(N2[C@H](C#N)[C@@H](c3ccccc3-c3ccccc3C)[C@@H]2CO)sc1C	-2	1
Cc1ccc(S(=O)(=O)N[C@@H]2C=C[C@@H](CC(=O)NC3CCCCC3)O[C@@H]2CO)cc1	5	5
CN(C)CCCNC(=O)C[C@@H]1CC[C@H]2[C@@H](COc3ccc(NC(=O)c4ccccc4F)cc3C(=O)N2C)O1	13	4
O=C(NCc1ccccc1)C1=C[C@H](c2csc3ccccc23)C[C@H](OCc2ccc(CO)cc2)O1	17	8
CCC(=O)Nc1ccc2c(c1)OC[C@H](C)N(C(=O)NC(C)C)C[C@@H](C)[C@H](OC)CN(C)C2=O	9	7
COc1ccccc1-c1cn(CC[C@H]2CC[C@@H](NC(=O)C3CCOCC3)[C@@H](CO)O2)nn1	5	10
CCN1[C@@H]2c3ccc(-c4ccccc4)c(=O)n3C[C@@H]2[C@@H](CO)[C@@H]1C(=O)NCC1CC1	0	-4
Cn1cnc(S(=O)(=O)N2CCCCN3[C@H](CO)[C@H](c4ccc(C#CC5CCCC5)cc4)[C@H]3C2)c1	?	nt
O=C(C[C@H]1CC[C@@H](NC(=O)Cc2ccccn2)[C@@H](CO)O1)NCCCN1CCOCC1	-2	-4
CC=Cc1ccc2n(c1=O)C[C@@H]1[C@@H](CO)[C@H](C(=O)NCCc3cn(C)cn3)N(C(=O)C3CCCC3)[C@H]21 (mixture of isomers)	30	23
Cc1ccccc1S(=O)(=O)N1C[C@@H](O)COC[C@@H]2O[C@H](CC(=O)NCCc3ccccc3)CC[C@H]21	-12	-11
C[C@@H]1CCCCO[C@@H](CN(C)CC2CCCCC2)[C@@H](C)CN([C@H](C)CO)C(=O)c2cc(NC(=O)CCCN(C)C)ccc2O1	-4	3
CCCC(=O)Nc1ccc2c(c1)C(=O)N(C)[C@H]1CC[C@@H](CC(=O)NCCN3CCCCC3)O[C@@H]1CO2	7	2
COc1ccc([Si](C)(C)[C@H]2[C@H](CCO)O[C@@]3(C(=O)N(Cc4ccc(NC(C)=O)cc4)c4ccccc43)[C@@H]2C)cc1	?	nt
CC(=O)N1[C@@H](CO)[C@H](c2ccccc2)[C@@H]1CNC(=O)CN1CCOCC1	21	18
CCCC#Cc1ccc([C@H]2[C@@H](CO)N3C(=O)CN(C(=O)Nc4cccc(F)c4)C[C@@H]23)cc1	-22	-15
CN1C(=O)c2cc(NC(=O)C3CCCCC3)ccc2OC[C@H]2O[C@H](CC(=O)NCC3CCCCC3)CC[C@H]21	-11	-12
C[C@@H]1CCCCO[C@@H](CN(C)Cc2ccc(Cl)c(Cl)c2)[C@H](C)CN([C@@H](C)CO)C(=O)c2cc(NC(=O)Nc3ccc4c(c3)OCO4)ccc2O1	-23	-10
C[C@@H]1CCCCO[C@@H](CN(C)CC2CC2)[C@H](C)CN([C@@H](C)CO)C(=O)c2cc(NC(=O)CCCN(C)C)ccc2O1	15	0
Cc1ccc(S(=O)(=O)N(C)C[C@@H]2Oc3c(NC(=O)Nc4ccccc4)cccc3C(=O)N([C@H](C)CO)C[C@@H]2C)cc1	?	nt
Cc1noc(C)c1NC(=O)N(C)C[C@@H]1Oc2ccc(NC(=O)Cc3ccccc3)cc2CC(=O)N([C@H](C)CO)C[C@@H]1C	-5	-5
Cc1noc(C)c1S(=O)(=O)Nc1ccc2c(c1)CC(=O)N([C@H](C)CO)C[C@H](C)[C@H](CN(C)S(=O)(=O)c1ccc(Cl)cc1)O2	5	1
C/C=C/c1ccc([C@H]2[C@@H](CO)N(C(C)=O)C23CN(C(=O)c2ccc(F)cc2)C3)cc1	2	3
C[C@@H]1CN([C@H](C)CO)C(=O)c2cc(NS(=O)(=O)c3ccc(Cl)cc3)ccc2O[C@@H](C)CCCCO[C@H]1CN(C)C(=O)Nc1ccccc1	-9	-14
CC(C)CC#Cc1cnc2c(c1)C(=O)N([C@@H](C)CO)C[C@@H](C)[C@@H](CN(C)C(=O)CCN1CCCCC1)O2	?	nt
C[C@@H]1CN([C@H](C)CO)C(=O)c2cccc(NC(=O)Nc3cccc4ccccc34)c2O[C@H]1CN(C)C(=O)Nc1ccc(C(F)(F)F)cc1	-15	-9
C[C@@H]1CN([C@H](C)CO)C(=O)c2cc(NC(=O)NC3CCCCC3)ccc2O[C@@H]1CN(C)Cc1ccc(-c2ccccc2)cc1	-35	-28
CC(=O)N(C)C[C@@H]1Oc2ncc(-c3cccc(F)c3)cc2C(=O)N([C@H](C)CO)C[C@@H]1C	-11	-17
Cc1ccc(S(=O)(=O)N(C)C[C@H]2Oc3c(NS(=O)(=O)c4cccs4)cccc3C(=O)N([C@@H](C)CO)C[C@H]2C)cc1	-8	2
CN(C)C(=O)C[C@@H]1C[C@H]2c3cc(NC(=O)C4CCOCC4)ccc3O[C@H]2[C@@H](CO)O1	-3	-2
COc1cccc(-c2ccc([C@@H]3[C@@H](CO)N4CCCCN(C(=O)c5ccc(F)cc5)C[C@@H]34)cc2)c1	-16	-13
CC(C)COC(=O)N(C)C[C@H]1OCc2cn(nn2)CCCC(=O)N([C@@H](C)CO)C[C@@H]1C	18	8
CCC(=O)N1CC2(CCN(C(=O)Cc3ccccc3)CC2)c2c(n(C)c3cc(OC)ccc23)[C@@H]1CO	6	-4
COc1ccc(C(=O)N2C[C@@H]3[C@H](c4ccccc42)[C@@H](CO)N3C(=O)c2cccc(F)c2)cc1	8	12
C[C@@H]1CN([C@@H](C)CO)C(=O)CCCn2cc(nn2)CO[C@@H]1CN(C)C(=O)NC1CCCC1	5	6
CCC(=O)Nc1ccc2c(c1)C(=O)N(C)C[C@@H](OC)[C@@H](C)CN[C@H](C)CO2	-7	-1
O=C(C[C@@H]1CC[C@@H](NS(=O)(=O)c2ccc(F)cc2)[C@H](CO)O1)NCc1ccccc1F	1	-1
Cc1noc(C)c1NC(=O)Nc1cccc2c1O[C@@H](CN(C)C(=O)Nc1c(C)noc1C)[C@H](C)CN([C@H](C)CO)C2=O	16	3
COc1ccc2c3c(n(C)c2c1)[C@H](CO)N(C(C)=O)CC31CCN(Cc2ccccc2OC)CC1	-3	-13
CC(C)CC#Cc1ccc2c(c1)O[C@@H](CN(C)S(=O)(=O)c1cccc(F)c1)[C@H](C)CN([C@@H](C)CO)S2(=O)=O	-12	-5
COc1ccc2c3c([nH]c2c1)[C@H](CO)N(C(C)=O)CC31CN(C(=O)Nc2ccc(F)cc2)C1	15	-1
CC(C)NC(=O)Nc1ccc2c(c1)CC(=O)N([C@@H](C)CO)C[C@@H](C)[C@H](CN(C)Cc1ccc(Oc3ccccc3)cc1)O2	?	nt
C[C@H]1CN([C@@H](C)CO)C(=O)c2cccc(NC(=O)c3ccncc3)c2O[C@@H]1CN(C)C(=O)Nc1ccc2c(c1)OCO2	4	5
COc1ccc(S(=O)(=O)Nc2ccc3c(c2)CC(=O)N([C@@H](C)CO)C[C@@H](C)[C@@H](CN(C)C(=O)NC(C)C)O3)cc1	9	10
O=C(NC1CCCC1)[C@@H]1[C@@H](CO)[C@@H]2Cn3c(ccc(-c4cccnc4)c3=O)[C@H]1N2CCc1ccccc1	-2	-3
O=C(Nc1cc(Cl)cc(Cl)c1)N[C@@H]1CC[C@@H](CCNS(=O)(=O)c2cccc(F)c2)O[C@H]1CO	-32	-21
C[C@H](CO)N1C[C@H](C)[C@@H](CN(C)C)Oc2c(NC(=O)C3CCOCC3)cccc2C1=O	-13	-24
CN(C)C(=O)[C@@H]1[C@@H](CO)[C@@H]2Cn3c(ccc(-c4ccccc4)c3=O)[C@@H]2N1Cc1ccccc1F	11	10
C[C@@H]1CN([C@@H](C)CO)C(=O)CCCn2nncc2CO[C@H]1CN(C)C(=O)Nc1ccc2c(c1)OCCO2	22	15
COc1ccc(S(=O)(=O)N(C)C[C@H]2OCCCC[C@@H](C)Oc3ccc(NC(=O)C4CCCCC4)cc3C(=O)N([C@@H](C)CO)C[C@H]2C)cc1	-33	-19
CCCN(C)C[C@@H]1Oc2cc(C#CC(C)(C)O)ccc2S(=O)(=O)N([C@@H](C)CO)C[C@@H]1C	17	9

Some of the entries so far, with values under each structure:
Second line of a record: Vaccinia stage, Vaccinia stage Venus
C[C@@H]1CN([C@@H](C)CO)C(=O)CCCn2cc(nn2)CO[C@@H]1CN(C)C(=O)NC1CCCC1
→ 5, 6
CC(C)CC#Cc1cnc2c(c1)C(=O)N([C@@H](C)CO)C[C@@H](C)[C@@H](CN(C)C(=O)CCN1CCCCC1)O2
→ ?, nt

Later entries
SMILES	Vaccinia stage	Vaccinia stage Venus
Cc1noc(C)c1NC(=O)Nc1ccc2c(c1)CC(=O)N([C@H](C)CO)C[C@H](C)[C@H](CN(C)Cc1ccc3c(c1)OCO3)O2	15	12
C[C@H]1CCCCO[C@H](CN(C)Cc2ccncc2)[C@@H](C)CN([C@@H](C)CO)C(=O)c2cc(NC(=O)C3CCCCC3)ccc2O1	-18	-13
C[C@H](CO)N1C[C@H](C)[C@H](CN(C)CC2CC2)Oc2ccc(NC(=O)Nc3ccccc3)cc2CC1=O	16	14
Cc1noc(C)c1NC(=O)N[C@H]1CC[C@@H](CCNC(=O)C2CCOCC2)O[C@@H]1CO	-17	-18
CC(C)CC#Cc1cnc2c(c1)C(=O)N([C@H](C)CO)C[C@H](C)[C@@H](CN(C)C(=O)Nc1cc(F)ccc1F)O2	2	7
C[C@@H]1CN([C@@H](C)CO)C(=O)Cc2cc(NS(=O)(=O)c3cccs3)ccc2O[C@H]1CN(C)Cc1ccc(Cl)c(Cl)c1	?	nt
O=C(CN1CCOCC1)N1CCCCN2[C@H](CO)[C@H](c3ccc(-c4ccccc4F)cc3)[C@H]2C1	2	-5
C[C@@H]1CN([C@H](C)CO)C(=O)c2cccc(NS(=O)(=O)c3ccccc3)c2O[C@H]1CN(C)S(=O)(=O)c1cn(C)cn1	18	13
N#C[C@H]1[C@H](c2ccc(-c3cccc(F)c3)cc2)[C@@H](CO)N1C(=O)c1cccnc1	-10	-11
CC(C)NC(=O)N[C@H]1CC[C@H](CCNS(=O)(=O)c2ccc(F)cc2)O[C@@H]1CO	2	3
C[C@@H]1CN([C@H](C)CO)C(=O)c2cc(NC(=O)C3CC3)ccc2O[C@H]1CN(C)Cc1ccccc1	-9	0
C[C@@H]1CN([C@H](C)CO)C(=O)c2cc(NC(=O)C3CCCCC3)ccc2O[C@@H](C)CCCCO[C@@H]1CN(C)S(=O)(=O)c1ccccc1	-2	1
C[C@@H]1CN([C@@H](C)CO)C(=O)c2cc(NC(=O)c3ccncc3)ccc2O[C@@H](C)CCCCO[C@H]1CN(C)S(=O)(=O)c1ccc(F)cc1	-12	-15
Cc1noc(C)c1S(=O)(=O)Nc1ccc2c(c1)C(=O)N([C@@H](C)CO)C[C@@H](C)[C@@H](CN(C)S(=O)(=O)c1ccc(F)cc1)OCCCC[C@H](C)O2	-25	-17
COc1cccc(S(=O)(=O)Nc2ccc3c(c2)[C@H]2C[C@H](CC(=O)N(C)C)O[C@@H](CO)[C@H]2O3)c1	4	2
C[C@@H]1CN([C@H](C)CO)C(=O)c2ccccc2-c2ccccc2CO[C@H]1CN(C)S(=O)(=O)c1cccc(F)c1	19	5
CCCN(C)C[C@@H]1Oc2cc(C#Cc3ccncc3)ccc2S(=O)(=O)N([C@H](C)CO)C[C@@H]1C	-18	-11
CC(C)NC(=O)N(C)C[C@H]1Oc2ccc(NC(=O)CCCCCC(=O)Nc3ccccc3N)cc2CC(=O)N([C@H](C)CO)C[C@@H]1C	11	15

Taken from above.
Vaccinia stage Venus, Cc1noc(C)c1S(=O)(=O)Nc1ccc2c(c1)C(=O)N([C@@H](C)CO)C[C@@H](C)[C@@H](CN(C)S(=O)(=O)c1ccc(F)cc1)OCCCC[C@H](C)O2 reads -17
Vaccinia stage Venus, C[C@@H]1CN([C@@H](C)CO)C(=O)c2cc(NC(=O)c3ccncc3)ccc2O[C@@H](C)CCCCO[C@H]1CN(C)S(=O)(=O)c1ccc(F)cc1 reads -15

Arranged by SMILES length (lowest first): three of the compounds above.
SMILES	Vaccinia stage	Vaccinia stage Venus
CC(C)NC(=O)N(C)C[C@H]1Oc2ccc(NC(=O)CCCCCC(=O)Nc3ccccc3N)cc2CC(=O)N([C@H](C)CO)C[C@@H]1C	11	15
C[C@@H]1CN([C@@H](C)CO)C(=O)c2cc(NC(=O)c3ccncc3)ccc2O[C@@H](C)CCCCO[C@H]1CN(C)S(=O)(=O)c1ccc(F)cc1	-12	-15
Cc1noc(C)c1S(=O)(=O)Nc1ccc2c(c1)C(=O)N([C@@H](C)CO)C[C@@H](C)[C@@H](CN(C)S(=O)(=O)c1ccc(F)cc1)OCCCC[C@H](C)O2	-25	-17
